Screening data deposited in PubChem BioAssay by Broad Institute.
MLL AF4-AF9 inh: blocks AF4 peptide binding to human AF9 | P42568 | AlphaScreen, biotin-AF4 peptide binding to FLAG-AF9 | inhibition, % at 10 µM | actives 0.47% (n = 350,000) | AID 651704;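 active = every replicate reaching a set inhibition limit, whatever the replicate mean, cut at about 25% in these data; inconclusive = mean inhibition reaches that limit but some replicates miss it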;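 note: 0% = plate neutral control median and 100% = total signal loss; the record names both 10 and 1 µM as test concentration; the first replicate is given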
Target sequence (P42568 whole entry, looked up): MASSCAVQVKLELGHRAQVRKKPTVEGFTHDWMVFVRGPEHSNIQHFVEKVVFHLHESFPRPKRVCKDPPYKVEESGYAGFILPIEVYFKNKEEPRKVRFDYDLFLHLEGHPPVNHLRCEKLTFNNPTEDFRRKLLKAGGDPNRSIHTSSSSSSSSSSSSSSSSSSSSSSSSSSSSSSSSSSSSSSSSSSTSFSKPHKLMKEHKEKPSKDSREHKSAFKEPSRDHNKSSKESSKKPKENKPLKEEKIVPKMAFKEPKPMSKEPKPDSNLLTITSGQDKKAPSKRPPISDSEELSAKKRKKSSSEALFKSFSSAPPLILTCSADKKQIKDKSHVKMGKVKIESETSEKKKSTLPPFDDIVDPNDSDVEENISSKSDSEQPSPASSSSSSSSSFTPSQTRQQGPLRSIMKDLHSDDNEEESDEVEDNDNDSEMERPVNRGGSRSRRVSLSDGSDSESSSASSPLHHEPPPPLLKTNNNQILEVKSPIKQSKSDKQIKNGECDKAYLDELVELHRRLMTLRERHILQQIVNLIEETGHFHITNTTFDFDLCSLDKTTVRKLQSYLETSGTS
Calb FLC: C. albicans growth modulation with fluconazole | actives 0.57% (n = 300,000) | AID 1979 | C. albicans CaCi-2 (fluconazole-resistant clinical isolate) + fluconazole, Alamar Blue growth, 48 h | growth inhibition, % (test concentration not listed);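 active = most replicates above 75%; inconclusive = exactly half above 75%; inactive = most below 75%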;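 note: all wells also contain fluconazole at 8 µg/ml as a sub-toxic cotreatment; 0% = median of DMSO wells and 100% = median of geldanamycin control wells; wells of about 8 µL received 7.5 nL stock; the first replicate is given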
rRNA inh HTS: inhibitors of bacterial rRNA selective over humanized ribosomes. E. coli WT GFP vs humanized-ribosome RFP mutants, fluorescence, 24 h; hits give low values; DMSO median 0, no signal -100. GFP signal change (wild-type ribosome), % (no concentration beside the values). actives 1.6% (n = 350,000). AID 720706;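 active = significant combined selectivity score with lowered wild-type GFP, culture density cut under 30%, mutant RFP and density less affected; inactive = any of these conditions unmet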; note: one replicate is shown; some compounds called inactive have numbers as strong as hits
FGF22 binding: FGF22 (human) thermal shift binding; calls only at 9.99 µM; recombinant FGF22 thermal shift, SYPRO orange fluorescence; percent of sucrose octasulfate shift, DMSO zero; actives 1.5% (n = 340,000); Q9HCT0;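 active = melting point raised past a set limit in the mean and every replicate; inconclusive = no clear call; three in four hits are not shown here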
Target sequence (Q9HCT0 whole entry, looked up): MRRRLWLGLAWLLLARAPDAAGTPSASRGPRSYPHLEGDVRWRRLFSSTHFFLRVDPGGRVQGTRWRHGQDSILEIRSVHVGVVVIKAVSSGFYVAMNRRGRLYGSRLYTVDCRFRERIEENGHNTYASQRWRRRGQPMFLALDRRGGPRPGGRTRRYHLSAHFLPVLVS
ALR inh: human ALR oxidase inhibition via reduced H2O2; P55789; purified ALR, DTT oxidation, H2O2 HRP-luminol luminescence; inhibition, % (no concentration beside the values); actives 3.8% (n = 290,000); AID 485317;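 active = mean and each replicate at 75% or more; inconclusive = only one of the two met; inactive = neither met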;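 note: stock transfer was 7.5 nL into about 7.5 µL; 0% = neutral wells and 100% = wells with inactivated enzyme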
Target sequence (P55789 whole entry, looked up): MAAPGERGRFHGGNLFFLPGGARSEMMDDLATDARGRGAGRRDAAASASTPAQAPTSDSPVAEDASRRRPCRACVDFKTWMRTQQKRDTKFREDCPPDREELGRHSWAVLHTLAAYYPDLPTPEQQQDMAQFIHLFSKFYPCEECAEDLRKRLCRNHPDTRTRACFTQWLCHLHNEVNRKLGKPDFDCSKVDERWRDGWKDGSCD
RanGTP-Impb inh: inhibitors of RanGTP-importin-beta interaction, primary screen, biochemical, FRET, CFP-Ran, YFP-importin-beta, homogeneous. cell-free CFP-Ran/YFP-importin-beta FRET ratio. inhibition, % (no concentration beside the values). actives 1.1% (n = 300,000);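 active = most replicates above 15%; inconclusive = exactly half above 15%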;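 note: 0% = DMSO wells and 100% = Ran loaded with GDP instead of GTP; wells of about 40 µL received 100 nL stock; the first replicate is given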
T cruzi inh: blocks replication of Trypanosoma cruzi; inhibition, % (no concentration beside the values); actives 1.4% (n = 300,000); AID 1885; T. cruzi beta-gal in NIH3T3, luminescence, 90 h;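 active = mean inhibition across valid replicates above about 55%, limit read from the data; inconclusive = mean below that limit but half or more replicates reach it; inactive = mean below it, under half of replicates reach it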;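 note: signal also drops with host cell toxicity which is not excluded here; 0% = plate median of DMSO wells and 100% = zero luminescence signal; higher percent means less beta-gal luminescence so fewer parasites; stock transfer was 50 nL into about 50 µL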
Beta apoptosis: beta cell apoptosis inhibition; actives 0.8% (n = 300,000); protection from apoptosis, % (test concentration not listed); INS-1E cytokine-induced death, ATP luminescence, 48 h; percent of positive-control rescue, neutral wells zero;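 active = all replicates at 75% or more, or half of them and the mean; inconclusive = half reach 75% but not the mean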;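 note: 0% = cytokine-treated negative control wells and 100% = positive control rescue; higher means more ATP so stronger rescue from cytokine killing; wells of about 40 µL received 100 nL stock; the first replicate is given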
rRNA inh HTS OD600: also measured in rRNA inh HTS; calls as there; OD600 change, %; measured here: OD600 growth;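 optical density of the mix in the first replicate; 0 = DMSO median and -100 = no signal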
rRNA inh HTS RFP: further read-out of rRNA inh HTS, marked with its call; RFP signal change, %; measured here: RFP humanized mutant strains;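 first replicate; 0 = DMSO median and -100 = no signal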
An asterisk follows results filed as active; i = inactive; ? = inconclusive; nt = not tested or not shown; & = joins results of further samples. Not all compounds are listed; count on the stated rates, not on these rows.

SMILES	MLL AF4-AF9 inh	Calb FLC	rRNA inh HTS	rRNA inh HTS OD600	rRNA inh HTS RFP	FGF22 binding	ALR inh	RanGTP-Impb inh	T cruzi inh	Beta apoptosis
COc1ccc(CCNC(=O)CC(NC(=O)c2ccccc2Cl)c2ccccc2)cc1 (stereo not drawn)	2.0	-13	5	20	2.1	i	1	-1.7	-14	-3
CCCCOc1ccc(C(=O)Oc2cccnc2)cc1	-0.7	-1	-6	-4	1.3	i	-13	3.8	-9	1
Cc1cc(F)c(F)c(C(=O)N2CCOCC2)c1Cl	nt	-1	nt	nt	nt	nt	-6	-1.1	-8	-3
CCc1nc(Nc2cccc(O)c2)c2oc3ccccc3c2n1	nt	26	nt	nt	nt	nt	48	-5.4	5	-11
CCOC(=O)c1ccc(NC(=S)NN2CCN(C)CC2)cc1	0.3	-11	6	4	0.1	i	?	-1.4	57*	1
COc1ccc(S(=O)(=O)N(CC(C)C)C2CCS(=O)(=O)C2)cc1OC (stereo not drawn)	-0.6	7	5	6	-0.8	i	-13	1.6	-5	nt
CCC(=O)N=c1sc2c(C)cc(C)cc2n1CC(=O)OC	-4.3	0	-11	8	5.8	i	0	0.9	8	8
S=C(Nc1ccccc1Oc1ccccc1)NC1CCCC1	1.6	-24	-38	-64	-2.1	i	33	-2.2	10	-7
O=C(COC(=O)C1=COCCO1)Nc1ccc(Oc2ccccc2)cc1	nt	-53	nt	nt	nt	nt	4	-7.0	-7	0
CC(C)c1ccc(C(=O)CN2C(=O)NC3(CCc4ccccc43)C2=O)cc1 (stereo not drawn)	1.2	nt	-37	-61	0.4	i	4	nt	nt	3
Cc1cc(C)n(-c2nc3c(c(=O)[nH]c(=O)n3C)n2CC(O)COc2ccc(Cl)cc2Cl)n1 (stereo not drawn)	nt	39	nt	nt	nt	nt	nt	0.1	12	49
O=C(Nc1ccccc1C(=O)NCCCN1CCOCC1)c1ccc(F)cc1	-1.4	-2	4	2	0.1	i	-4	5.1	0	1
COc1ccc2c(C)cc(SCn3nnc4ccccc4c3=O)nc2c1	nt	3	nt	nt	nt	nt	0	3.4	12	-1
O=C(NCc1cccnc1)c1cnc2ccccc2n1	2.8	-4	15	7	0.6	i	nt	-1.8	-9	nt
CCn1c(=O)c(C(=O)NNC(=O)c2ccccc2)c(O)c2ccccc21	0.1	-28	-48	-44	-4.8	i	nt	0.8	6	8
CCOC(=O)c1[nH]c2ccc(F)cc2c1NC(=O)Nc1ccccc1OC	nt	3	nt	nt	nt	nt	-5	25	1	0
O=C(NCCCN1CCOCC1)c1cc(-c2ccc(Cl)c(Cl)c2)on1	-0.2	14	6	8	-1.4	i	-11	0.3	7	-3
CC(C)Oc1ccc(C(=O)Nc2cc(=O)n(C)c(=O)n2C)cc1	10	4	10	2	1.3	i	-4	-1.1	-7	-2
CCC(C(=O)O/N=C(\N)c1ccc(Cl)cc1)c1ccccc1 (stereo not drawn)	nt	-3	nt	nt	nt	nt	-5	-4.5	3	-3
O=c1c2ccccc2[nH]c(=S)n1CCCN1CCC(Cc2ccccc2)CC1	3.6	-1	5	-3	2.5	i	11	-6.3	56*	8
O=C(O)CN1CCN(Cc2cccc(Cl)c2)C1=O	-0.2	1	5	7	-1.2	i	-7	-4.5	-2	-2
Cc1ccc2cc3c(NC(=O)CC(C)C)nn(C)c3nc2c1	nt	5	nt	nt	nt	nt	nt	4.4	-3	-3
O=C1CN(C(=O)c2ccccc2F)C(c2ccccc2)c2cc(Cl)ccc2N1 (stereo not drawn)	-5.3	12	-24	-31	-7.0	i	-1	-1.7	-9	1
C/C(=N\NC(=O)c1nnn(-c2nonc2N)c1C(C)C)c1ccncc1	-1.1	0	3	2	-0.1	i	-9	?	2	0
CS(=O)(=O)c1ccccc1C(=O)NC1CCCc2ccccc21 (stereo not drawn)	0.6	-6	18	14	-1.7	nt	-3	0.3	-14	-2

More results follow:
SMILES	MLL AF4-AF9 inh	Calb FLC	rRNA inh HTS	rRNA inh HTS OD600	rRNA inh HTS RFP	FGF22 binding	ALR inh	RanGTP-Impb inh	T cruzi inh	Beta apoptosis
COc1ccc(N2C(=O)CC(N3CCN(C(=O)c4ccco4)CC3)C2=O)cc1 (stereo not drawn)	-7.3	0	7	7	1.0	i	-1	-0.3	-26	-5
CC(C)(C)C1CCc2c(C(=O)NNC(=O)CCC(=O)O)csc2C1 (stereo not drawn)	nt	-17	nt	nt	nt	nt	49	-0.4	-13	-2
Cc1ccc(NC(=O)C2CC=CCC2C(=O)N2CCCCC2)cc1 (stereo not drawn)	nt	-7	nt	nt	nt	nt	-16	-2.0	2	-16
CC(C)(C)NS(=O)(=O)c1ccc(NC(=O)NC2CCCCC2)cc1	nt	-1	nt	nt	nt	nt	1	1.0	-6	-3
CNc1oc(-c2cccs2)nc1S(=O)(=O)c1ccccc1	8.7	5	0	-2	-2.1	i	1	-2.8	-10	-3
Cc1ccc(CSc2nc3ccccc3cc2C=O)cc1	nt	11	nt	nt	nt	nt	-7	4.2	-15	39
Cc1ccc(CNC(=O)C2C3C=CC4(CN(Cc5cccnc5)C(=O)C24)O3)cc1 (stereo not drawn)	nt	4	nt	nt	nt	nt	-2	-1.4	4	-3
CC(=O)Nc1ccc(NC(=O)C/C(C)=N/NC(=O)C(=O)Nc2ccc(C)c(Cl)c2)cc1	1.3	2	11	26	4.5	i	-2	2.0	-5	3
Cc1cc(NC(=O)/C=C/c2ccco2)ccc1NC(=O)c1ccccc1	0.4	-5	1	7	0.0	i	5	1.8	-94	6
COc1ccc(/C=N/NC(=O)c2ccc3c(c2)OCO3)c(C(=O)O)c1OC	-1.5	-3	6	1	-0.8	i	2	7.7	-6	-2
O=C(CCSCc1ccc(Cl)cc1)NCCC1=CCCCC1	3.2	-3	-12	-9	-4.5	i	-18	-1.4	0	2
Cc1nc2ccccc2c(=O)n1NC(=O)C1CCC(C(C)(C)C)CC1 (stereo not drawn)	0.9	-6	5	-4	0.4	nt	-6	-7.2	31	-9
CC1=NN(C(=O)c2ccc(Br)cc2)C(O)(c2ccccc2)C1 (stereo not drawn)	0.1	24	1	4	4.3	i	82*	8.5	-18	2
O=C1C(Nc2ccccc2)=C/C(=N/S(=O)(=O)c2cccs2)c2ccccc21	nt	60	nt	nt	nt	nt	-7	6.0	60*	105*
COc1ccc(C(=O)CSc2nnc(-c3ccc(S(=O)(=O)N4CCOCC4)cc3)o2)cc1	nt	-4	nt	nt	nt	nt	-3	-3.2	28	1
C[C@H]1CN([C@@H](C)CO)C(=O)c2cccc(NC(=O)c3ccc(-c4nccs4)cc3)c2O[C@@H]1CN(C)C(=O)Nc1cccc2ccccc12	-1.0&-4.0	nt	-3&-2	1&-7	1.0&-10	i	-2	nt	nt	1
CCC(C)(C)C1CCC(=NNC(=O)c2ccc(Br)o2)CC1 (stereo not drawn)	nt	-4	nt	nt	nt	nt	-2	-2.7	-12	-3
CCCCOC(=O)Nc1ccc(C)c(Cl)c1	nt	2	nt	nt	nt	nt	-6	-2.7	5	1
O=C(c1cc(F)ccc1F)C1CCCN(C(=O)CSc2ccccn2)C1 (stereo not drawn)	-3.4	2	-13	-1	9.4	i	4	3.8	-8	0
N#CC1(c2ccccc2)CCC(=NNS(=O)(=O)c2ccccc2)CC1 (stereo not drawn)	0.2	nt	-4	-3	-2.2	i	nt	nt	nt	1
O=C(COC(=O)c1ccc(Cl)c(S(=O)(=O)N2CCCC2)c1)NCc1cccs1	-7.6	-2	-32	-31	-2.6	i	-14	-1.3	-7	0
Cc1ccc(NC(=O)CC2SC(=O)N(c3ccccc3)C2=O)cc1 (stereo not drawn)	nt	3	4	7	7.2	nt	98*	1.4	0	0
Cc1ccc(C(=O)N2CCCc3ccccc32)c(F)c1F	-3.6	-13	-19	-14	-1.4	i	-8	5.4	1	-10
COc1ccccc1C(=O)Nc1ccc(-c2nnc(SCC(=O)O)n2C)cc1	nt	-12	nt	nt	nt	nt	-7	20*	-16	-3
CNC(=S)NNC(=O)Cc1ccc(OC)c(OC)c1	nt	-3	nt	nt	nt	nt	nt	-0.5	49	-7

(next part)
SMILES	MLL AF4-AF9 inh	Calb FLC	rRNA inh HTS	rRNA inh HTS OD600	rRNA inh HTS RFP	FGF22 binding	ALR inh	RanGTP-Impb inh	T cruzi inh	Beta apoptosis
Cc1ccc(NC(=O)COC(=O)C2CCC(=O)N2)c(S(=O)(=O)N2CCOCC2)c1 (stereo not drawn)	nt	-15	nt	nt	nt	nt	nt	-2.6	1	-3
COC(=O)[C@@H]1C(c2ccccc2)(c2ccccc2)[C@@]1(C)C(=O)OC	1.8	9	nt	nt	nt	i	-13	-1.2	10	-17
Cc1csc2nc3cc(C(N)=O)ccc3c(=O)n12	55*	9	3	3	4.3	i	-8	3.1	-20	-7
Cc1cc(C(=O)N/N=C/c2cc([N+](=O)[O-])cc(C)c2O)n[nH]1	13	21	-33	-46	-2.6	i	nt	-0.2	-40	nt
CCC(CC)C(=O)Nc1c(C)n(C)n(-c2ccccc2)c1=O	nt	-2	nt	nt	nt	nt	-10	0.3	-7	-2
O=C(O)CCc1nc(-c2cccs2)no1	nt	5	nt	nt	nt	nt	-2	7.9	-4	-3
O=c1c2ccccc2nc(COc2ccccc2)n1/N=C/c1ccco1	nt	-3	nt	nt	nt	nt	-2	1.0	-2	-1
O=C(Nc1ccc(F)cc1F)C1CCN(S(=O)(=O)c2cccnc2)CC1	-0.3	1	1	3	-1.8	i	-3	0.5	-4	-6
O=C(O)CN1C2=NCCCN2c2ccccc21	4.0	-17	-10	-16	-6.3	i	-21	0.7	-8	nt
O=C(COC(=O)[C@@H]1CC(O)CN1S(=O)(=O)c1ccc([N+](=O)[O-])cc1)NC12CC3CC(CC(C3)C1)C2 (stereo partly drawn)	3.2	-21	0	-1	1.5	i	-45	0.6	6	-3
Cc1occc1C(=O)/C(C#N)=C/c1ccc(O)c(Br)c1	3.1	1	0	0	0.8	i	65	11	3	-6
O=C(NC1CCCCC1)C1COc2ccccc2O1 (stereo not drawn)	0.4	-7	5	3	-1.7	i	-7	2.5	-10	1
CCOCC(=O)Nc1cc(C(=O)OC)ccc1C(=O)OC	nt	-14	nt	nt	nt	nt	-1	-1.9	-3	1
Cc1cccc2nc(CSc3ncccc3C(=O)O)cn12	-1.9	3	14	17	2.9	i	1	9.7	-13	-8
CCOc1ccc(Nc2cc(C)nc3c(C)cccc23)cc1	0.2	3	12	-4	-1.8	i	-26	6.3	50	17
O=C(CN1CCN(c2ccccn2)CC1)NC(=O)NC1CCCCC1	nt	-1	nt	nt	nt	nt	nt	0.6	1	-7
CCOc1ccc(NC(=O)N(c2ccccc2)c2ccccc2)cc1	-1.5	8	-7	-14	-3.5	i	-10	-1.5	17	-2
COc1cccc(CN2CCN(Cc3cc(OC)c(OC)cc3OC)CC2)c1	-31	nt	11	10	1.6	i	-61	-2.6	28	-10
CC(=O)C1=C(C)NC(SCC(=O)c2ccccc2)=C(C#N)C1CC(C)C (stereo not drawn)	nt	-6	nt	nt	nt	nt	-13	1.6	5	11
COc1ccc(NC(=O)C2CCOC2=O)cc1 (stereo not drawn)	-1.5	-3	5	6	0.9	i	-4	-1.9	-2	-3
